VACV Venus inh: vaccinia inhibition (Venus reporter); Vaccinia virus Venus reporter expression, fluorescence; Potency, µM (highest dose often 36.5 µM), inactives show at the top dose activity change, negative = inhibition, most hits filed as inhibitors; 330,000 tested, 0.46% active; active means well fitted inhibition curve with a large enough effect; inconclusive means small, poorly fitted or top-dose-only effect; inactive means no such curve, though single readings can be large or run the other way; tested in A549 cells; note: nearly all actives have a fitted effect of over 30% in size; inactives centre near -10
VACV mCherry inh: vaccinia inhibition (mCherry reporter); Vaccinia virus mCherry reporter infection, fluorescence; about a quarter of the inactives have no number; Potency, µM (doses to about 36.5 µM), inactives show at the highest dose activity change, negative = inhibition, actives largely listed as inhibitors; 310,000 tested, 0.63% active; AID 720579; active = well fitted inhibition curve with a large enough effect; inconclusive = small, poorly fitted or top-dose-only effect; inactive = no such curve, though single readings can be large or run the other way; tested in A549 cells; note: nearly all actives have a fitted effect of over 35% in size; inactives centre near -10
An asterisk follows results filed as active; i = inactive; ? = inconclusive; / = not tested or not shown; & = joins results of further samples; [ ] = remark or other dose. % is set by controls: 0 for no effect and ±100 for the full control effect; potency is the fitted concentration of half-maximal effect. Rows were taken by chance. Share with any hit: about 0.82%.

SMILES	VACV Venus inh	VACV mCherry inh
Cc1nc2sccc2c(=O)n1-c1cccc(Cl)c1	-3.7%	-14.4%
COc1ccc(NC2=CC(c3cccc(OC)c3)N(c3ccc(OC)cc3)C2=O)cc1 (stereo not drawn)	-8.0%	-18.7%
COc1ccc(OC)c(C(=O)c2ccc([N+](=O)[O-])cc2)c1	-5.8%	?
COc1ccc(NC(=O)C2(S(=O)(=O)c3ccc(C)cc3)CC2)c(OC)c1	-2.3%	-7.4%
COc1cc(/C=N/NC(=O)CC#N)cc(Br)c1O	-0.6%	-5.1%
O=C(CCCN1CCC(C(O)c2ccc(F)cc2)CC1)c1ccc(F)cc1 (stereo not drawn)	10.0%	i
CC(C)(C)OC(=O)N1CCC(N2CCN(Cc3ccccc3)C(=O)C2=O)CC1	-9.4%	-10.5%
O=S(=O)(c1ccccc1)c1nc(-c2cccs2)oc1NCCCn1ccnc1	-14.7%	/
CCOC(=O)c1c(NC(=O)C2CCCO2)sc(C(=O)OC(C)(C)C)c1C (stereo not drawn)	3.2%	-9.3%
Cc1ccc(C(=O)NCCn2ccc3ccccc32)cc1[N+](=O)[O-]	-11.5%	-18.7%
O=C1CCCC(O)=C1N=Nc1cccc(C(=O)O)c1	-5.6%	-13.0%
CCCCNS(=O)(=O)CCNCc1ccccc1OC	-8.8%	i
COc1ccc(N2CCOCC2)c(NC(=O)COc2cccc(C)c2)c1	7.9%	-8.4%
Cc1cccc(C(=O)OCc2cc(=O)oc3c(C)c(C)ccc23)c1O	-8.4%	1.7%
O=C(NCCO)OC1CC2CC1[C@H]1CCCCN1C2=O (stereo partly drawn)	-4.6%	35.6%[activator]
CNC(=O)c1ccc2nc(-c3cccc(C)c3)c(-c3cccc(C)c3)nc2c1	-5.3%	i
NNC(=O)CNC(c1ccccc1)c1cc(Br)ccc1NC(=O)c1ccc(Br)cc1 (stereo not drawn)	-10.7%	-6.0%
Cn1nc(C(=O)Nc2cccc(S(N)(=O)=O)c2)c2ccccc2c1=O	0.0%	16.8%
Cn1nc(C(=O)OCc2ccccc2F)c2ccccc2c1=O	-9.8%	-12.5%
O=C1CCC[C@@H]2Cc3nc4ccc(O)cc4cc3[C@@H]3CCN1[C@H]23	-11.1%&-6.4%	i
CC(C)(C)C1CCC(=O)N(CCC#N)CC1 (stereo not drawn)	-2.7%&-14.1%	-25.6%&-11.4%
Clc1ccc(C2CC(c3cccs3)n3ncnc3N2)cc1Cl (stereo not drawn)	-18.6%	-17.4%
CSc1cccc(NC(=O)C2CCCN(S(=O)(=O)c3cnc[nH]3)C2)c1 (stereo not drawn)	-10.2%	-9.8%
N#C/C(=C/c1ccccc1Cl)c1nc(-c2cc3ccccc3oc2=O)cs1	-11.4%	-8.4%
Cc1cccc(NC(=S)N2CCC(NC(=O)c3ccco3)CC2)c1	-4.6%	-10.1%
O=C(CN(C(=O)c1csnn1)c1ccc(F)c(Cl)c1)NC1CCCC1	4.1%	-8.6%
Cn1c(COc2ccc([N+](=O)[O-])cc2)nnc1SCC(N)=O	-5.7%	-3.0%
CCOC(=O)c1c(N)c(C#N)c2n1CCCC2	-16.8%	/
COc1ccccc1N1CCN(S(=O)(=O)c2ccc(-c3cc(C(F)(F)F)on3)s2)CC1	-9.8%	i
COc1ccc(NC(=O)CN2CCC3(O)CCCCC3C2c2cc(OC)ccc2OC)cc1 (stereo not drawn)	-22.2%	/

A second format for 19 compounds above:
Structure,VACV Venus inh,VACV mCherry inh
CCCCNS(=O)(=O)CCNCc1ccccc1OC,-8.8%,i
COc1ccc(N2CCOCC2)c(NC(=O)COc2cccc(C)c2)c1,7.9%,-8.4%
Cc1cccc(C(=O)OCc2cc(=O)oc3c(C)c(C)ccc23)c1O,-8.4%,1.7%
O=C(NCCO)OC1CC2CC1[C@H]1CCCCN1C2=O (stereo partly drawn),-4.6%,35.6%[activator]
CNC(=O)c1ccc2nc(-c3cccc(C)c3)c(-c3cccc(C)c3)nc2c1,-5.3%,i
NNC(=O)CNC(c1ccccc1)c1cc(Br)ccc1NC(=O)c1ccc(Br)cc1 (stereo not drawn),-10.7%,-6.0%
Cn1nc(C(=O)Nc2cccc(S(N)(=O)=O)c2)c2ccccc2c1=O,0.0%,16.8%
Cn1nc(C(=O)OCc2ccccc2F)c2ccccc2c1=O,-9.8%,-12.5%
O=C1CCC[C@@H]2Cc3nc4ccc(O)cc4cc3[C@@H]3CCN1[C@H]23,-11.1%&-6.4%,i
CC(C)(C)C1CCC(=O)N(CCC#N)CC1 (stereo not drawn),-2.7%&-14.1%,-25.6%&-11.4%
Clc1ccc(C2CC(c3cccs3)n3ncnc3N2)cc1Cl (stereo not drawn),-18.6%,-17.4%
CSc1cccc(NC(=O)C2CCCN(S(=O)(=O)c3cnc[nH]3)C2)c1 (stereo not drawn),-10.2%,-9.8%
N#C/C(=C/c1ccccc1Cl)c1nc(-c2cc3ccccc3oc2=O)cs1,-11.4%,-8.4%
Cc1cccc(NC(=S)N2CCC(NC(=O)c3ccco3)CC2)c1,-4.6%,-10.1%
O=C(CN(C(=O)c1csnn1)c1ccc(F)c(Cl)c1)NC1CCCC1,4.1%,-8.6%
Cn1c(COc2ccc([N+](=O)[O-])cc2)nnc1SCC(N)=O,-5.7%,-3.0%
CCOC(=O)c1c(N)c(C#N)c2n1CCCC2,-16.8%,/
COc1ccccc1N1CCN(S(=O)(=O)c2ccc(-c3cc(C(F)(F)F)on3)s2)CC1,-9.8%,i
COc1ccc(NC(=O)CN2CCC3(O)CCCCC3C2c2cc(OC)ccc2OC)cc1 (stereo not drawn),-22.2%,/

New compounds follow
SMILES	VACV Venus inh	VACV mCherry inh
CCOc1ccccc1N1CCN(C(=O)c2cc3c(C)cc(C)cc3[nH]2)CC1	-24.1%	-27.5%
O=C(NC1CCCCC1)NC1CC2CCC(C1)N2C(=S)NCc1ccco1 (stereo not drawn)	-8.9%	i
Cc1cc(NC(=O)Nc2ccccc2Cl)no1	-11.7%	-15.3%
COC(=O)C1=C(c2ccc(OC(F)(F)F)cc2)C[C@@H]2CC[C@H]1N2C(=O)NCCCOC(C)C	?	i
CCOc1cc(C(=O)N2CCN(c3ccccn3)CC2)cc(OCC)c1OCC	-10.6%	-0.7%
O=C([C@H](Cc1ccccc1)N1C(=O)c2ccccc2C1=O)N1CCOCC1	-6.9%	-14.3%
CC1=NNC(=O)C1CCC(=O)N/N=C/c1ccc(C)cc1 (stereo not drawn)	-16.2%	-13.9%
CCOC(=O)C1=CCN(S(=O)(=O)c2ccccc2C)C1c1ccc(Br)cc1 (stereo not drawn)	-5.9%	8.0%
O=C1C2C3c4ccccc4C(c4ccccc43)[C@@H]2C(=O)N1c1nc(-c2ccccc2)cs1 (stereo partly drawn)	-5.7%	i
CC(CNC(=O)c1ccc(Nc2nc3ccccc3n3nnnc23)cc1)c1ccccc1 (stereo not drawn)	-8.4%[7.34 µM]	-2.2%[7.34 µM]
CC(=O)Nc1cccc(C(=O)N/N=C/c2c[nH]c3ccccc23)c1	0.8%	-14.3%
COc1ccc(N(Cc2cccs2)C(=O)c2ccccc2C)cc1	-21.0%	-21.8%
COC(=O)/C(C#N)=C/c1cc(C)sc1C	5.5%	?
O=C(NC(=S)Nc1ccccc1Br)C1CCC1	-3.5%	i
c1ccc(OCCOc2ncnc3ccccc23)cc1	-2.9%	-14.5%
CC(=O)Nc1ccc(NC(=O)c2c([N+](=O)[O-])c(C(C)(C)C)nn2C)cc1	-14.0%	10.2%
Cc1ccc(S(=O)(=O)NCC(=O)OC(C)C(=O)NC2CCCCC2C)cc1C (stereo not drawn)	-7.5%	-13.0%
CCc1ccccc1NC(=O)c1cnn(-c2ccc(F)cc2)c1C1CCNCC1	0.9%	-3.5%
CCOC(=O)N(c1ccccc1)P1(=S)OCCO1	-13.0%	/
COc1ccc(OC)c(-c2cc(C(=O)NCCc3ccccc3)c3c(-c4ccc(C)cc4)[nH]nc3n2)c1	-23.6%	-11.7%
COc1ccc(/C=C/C(=O)c2ccccc2O)cc1	-15.5%	?
O=C(CS(=O)(=O)c1cccc2nsnc12)NCc1ccc(Cl)cc1	-4.7%[7.34 µM]	-9.2%[7.34 µM]
CCOc1ccc(C(c2nnnn2Cc2ccccc2)N2CCN(C(=O)c3ccco3)CC2)cc1 (stereo not drawn)	-13.3%	/
CCCCNCCS(=O)(=O)NCc1ccccc1OC	-16.7%	-9.4%
CC(C)C[C@H](NC(=O)c1[nH]cnc1C(=O)Nc1ccccc1)C(=O)OC(C)(C)C	?	-19.4%
CCOC(=O)N1CCN(Cc2ccc3c(c2)CN(C(=O)c2cc(-c4ccccc4)on2)CCO3)CC1	-18.7%	-24.4%
Cc1ccc(C(=O)ONc2ccc(N=O)cc2)cc1	5.7%	15.2%
COc1cccc2c1Oc1ncccc1N(C(=O)CCC(=O)NC(C)C)C2	-4.3%	-8.6%
COC(=O)c1ccc(C(=O)OC)c(NC(=S)N2CCN(c3ccccn3)CC2)c1	-7.9%	-13.3%
O=C(CSc1nccn1Cc1ccco1)Nc1cc(C(F)(F)F)ccc1Cl	-15.8%	-9.5%
CCN(CC)CCNC(=O)c1ccc(Sc2ccc(Cl)cc2)c(NC(C)=O)c1	-2.4%	-0.4%
N/C(CN1CCCC1=O)=N\OC(=O)c1ccc(Cl)cc1	0.4%	-8.0%
CCCn1nnc(NC(=O)/C=C/c2ccco2)n1	12.3%	-12.0%
CC(=O)Nc1cc(-c2nc3cc(Cl)ccc3o2)ccc1C	-5.4%	-5.1%
Cc1ccc(Cc2cnc(NC(=O)/C(C#N)=C/c3ccc(-c4cccc([N+](=O)[O-])c4)o3)s2)cc1	-3.6%	-10.3%
COc1ccc(C2=NN(C(=O)CCC(=O)O)C(c3ccc(OC)cc3)C2)cc1 (stereo not drawn)	-8.4%	i
Cc1ccccc1CS(=O)(=O)CCC(=O)NCCN1CCN(c2cccc(Cl)c2)CC1	-23.8%	-19.2%
COc1ccc(N2CC(C(=O)Nc3cc(C)on3)CC2=O)cc1 (stereo not drawn)	-0.8%	-9.2%
Oc1ccc(C[C@H]2CNCCN2CCc2cc(C(F)(F)F)cc(C(F)(F)F)c2)cc1	-28.5%	-13.2%
COc1ccccc1C(O)(C(=O)NN(C)c1ccccc1)c1ccccc1OC	-4.0%	i
CCN(Cc1nc2cc(Cl)ccc2c(=O)[nH]1)C(=O)c1nn(C)c(=O)c2ccccc12	-4.6%	-11.5%
CCc1ccc(-c2nn(CC(=O)NCc3ccccc3)c3c2cnc2ccc(C)cc23)cc1	6.3%	7.5%
CN(C)C(=O)CSc1nnc2sc3ccccc3n12	-7.7%	/
O=C(C1CC1)N1CCc2cc(S(=O)(=O)NCCCN3CCCCC3)ccc21	-3.1%	0.9%
O=C(Nc1ccc(S(=O)(=O)NC2CCCCC2)cc1)c1ccc(Br)o1	-20.8%	?
O=C(NC(=S)Nc1ccc2[nH]c(=O)[nH]c2c1)c1ccccc1[N+](=O)[O-]	-9.7%	i
COc1ccc(CNc2nc3ccccc3n2Cc2ccc(C)cc2)cc1OC	-8.2%	-23.7%
Cc1cc(C)c(C)c(OCCNCc2ccccc2)c1	-29.5%	-14.0%
COCCCNc1nc2c(-c3cccc(C(F)(F)F)c3)nnn2c2ccccc12	7.6%	-13.0%
COc1ccccc1N1CCN(C2CC(=O)N(c3cccc(Br)c3)C2=O)CC1 (stereo not drawn)	-16.6%	-8.7%
O=C(N[C@@H](Cc1ccc(Br)cc1)C(=O)O)OCC1c2ccccc2-c2ccccc21	-6.8%	i
C/C(N)=C(/C#N)C(=O)CSc1nnc(Nc2cccc(C)c2C)s1	-16.1%&-13.9%	?
CC(=O)Nc1cccc(-c2ccnc3c2CC(C(=O)NCc2cccc(Cl)c2)O3)c1 (stereo not drawn)	-27.8%	?
Cc1ccc(NC(=O)CN(C)C(=O)c2ccc(Cl)c([N+](=O)[O-])c2)cc1	-9.1%	-21.6%
CCS(=O)(=O)/N=C(\N)c1ccccc1	-0.8%	6.2%
C=CCn1c(SCC(=O)Nc2ccc(C(=O)OCC)cc2)nnc1-c1cccs1	-25.5%	-18.1%
CCN(CC)CC#CC(O)(c1ccccc1)c1ccccc1	-5.5%	-5.3%
Cc1ccccc1NC(=O)C(C)OC(=O)CNS(=O)(=O)c1ccc(C#N)cc1 (stereo not drawn)	1.1%	-15.4%
